YopH PTP inh: YopH tyrosine phosphatase inhibitors, primary screen, biochemical, fluorescence Ex485/Em525 | YopH tyrosine phosphatase [Yersinia enterocolitica] | inhibition, %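 (about 10 µM by stock and volumes)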 | 0.16% of 140,000 active;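 active = inhibition of 50% or more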;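 also: controls were vehicle for no effect and minimum signal wells for full effect; inactives centre near -20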
Arbovirus inh: antivirals against arbovirus infection, primary screen, cell-based, full library, 10K replicate subset. inhibition, % at 10 µM. arbovirus infection cell-based antiviral screen. 0.37% of 200,000 active;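 active = inhibition from about 30%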;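 also: bluetongue infection of BSR cells; cell survival read as ATP light after 72 h; 0% = infected wells without compound and 100% = uninfected wells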
RecA splice inh: Mtb RecA intein splicing inhibitors, primary screen, biochemical, fluorescence, HTS. Protein RecA (Mycobacterium tuberculosis (strain ATCC 25618 / H37Rv)), P9WHJ3. cell-free RecA intein splicing. inhibition, %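 (about 9 µM by stock and volumes)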. 0.75% of 290,000 active. AID 2221, 2009; in the data active = inhibition above about 30%; inconclusive = no clear call, values can overlap the other calls;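 also: 0% = vehicle wells and 100% = reference inhibitor control wells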
Target sequence (P9WHJ3 whole entry, looked up, canonical isoform): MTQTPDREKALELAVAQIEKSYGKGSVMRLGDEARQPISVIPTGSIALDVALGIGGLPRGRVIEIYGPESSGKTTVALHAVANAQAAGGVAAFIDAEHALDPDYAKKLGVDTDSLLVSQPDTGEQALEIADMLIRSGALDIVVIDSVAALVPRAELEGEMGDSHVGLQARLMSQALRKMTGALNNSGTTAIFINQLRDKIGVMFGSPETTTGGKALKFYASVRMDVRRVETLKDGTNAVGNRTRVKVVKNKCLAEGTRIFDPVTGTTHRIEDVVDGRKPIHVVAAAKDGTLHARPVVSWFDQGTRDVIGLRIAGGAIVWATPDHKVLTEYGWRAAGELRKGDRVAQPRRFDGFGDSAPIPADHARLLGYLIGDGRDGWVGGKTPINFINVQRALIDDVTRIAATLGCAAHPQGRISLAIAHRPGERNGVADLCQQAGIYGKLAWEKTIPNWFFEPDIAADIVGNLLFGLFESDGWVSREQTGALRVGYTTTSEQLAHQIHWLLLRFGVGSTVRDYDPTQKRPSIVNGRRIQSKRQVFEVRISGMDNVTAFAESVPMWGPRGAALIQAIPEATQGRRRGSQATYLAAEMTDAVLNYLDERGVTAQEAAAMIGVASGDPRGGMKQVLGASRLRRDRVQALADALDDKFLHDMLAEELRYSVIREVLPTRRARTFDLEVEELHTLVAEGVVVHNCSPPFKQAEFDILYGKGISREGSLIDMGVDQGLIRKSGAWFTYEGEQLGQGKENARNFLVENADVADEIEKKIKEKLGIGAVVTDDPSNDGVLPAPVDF
Mtb bLac sens: beta-lactam sensitization of Mtb H37Rv, H37Rv. 0.27% of 330,000 active. AID 434955, 2010. M. tuberculosis H37Rv growth with meropenem, percent inhibition; hits of this screen are not shown here. inhibition, % at 25 µM;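 active = about 74% or more and at least 40 points above the plate without the antibiotic, then above 30% in a dose series; inconclusive = first-round hits that could not be retested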;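 also: growth measured after seven days incubation then overnight dye step; 0% = bacteria only wells and 100% = bacteria with antibiotic; twin plates without the antibiotic show which effects depend on it; some results filed as inactive read as strong as hits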
Mtb H37Rv: M. tuberculosis H37Rv growth inhibitors, H37Rv strain (AID 1626). M. tuberculosis H37Rv growth inhibition; higher % means a stronger effect. one-dose inhibition, % at 10 µM; IC50 in µM for titrated hits. 0.95% of 220,000 active;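 active = confirmed in a dose series; inconclusive = inhibition above 80% but not taken into the dose series; inactive = below 80% or under 30% at every dose of the series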;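 also: bacteria incubated seven days before Alamar blue readout; 0% = bacteria only wells and 100% = bacteria with antibiotic wells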
Arbovirus inh repeat: second read-out of Arbovirus inh, no call of its own (marks repeat the call); inhibition, %; measured here: 10K subset replicate screen; many hits read low in the repeat;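 first of two repeat runs on a subset; 0% = infected and 100% = uninfected wells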
Numbers without * were called inactive; ? = inconclusive; / = no result given. Some of the compounds tested (hit frequency here may not be typical).

SMILES | YopH PTP inh | Arbovirus inh | RecA splice inh | Mtb bLac sens | Mtb H37Rv | others
COc1ccc(C(=O)Nc2ccccc2C(=O)NC(C(=O)NCc2ccco2)C(C)C)cc1 (stereo unspecified) | -20.8 | -20.2 | -13.6 | / | 29.9%
COc1ccc(CNC(=O)c2cccnc2Sc2ccc(C)c(C)c2)cc1 | -18.6 | -9.3 | 0.4 | 0.4 | 4.3%
CCOc1ccc(-n2cnc3c(=O)[nH]c(N)nc32)cc1 | / | / | -0.1 | -7.5 | 0.6%
Cc1ccc(OC(=O)COc2ccccc2C)c(-n2nc3ccccc3n2)c1 | -22.1 | -2.7 | 20.5 | 12.6 | -7.2%
CCN1CCN(C(=O)c2ccccc2Nc2ccc(SC(F)F)cc2)CC1 | / | -10.1 | -0.1 | 9.9 | -10.3%
CCCC1(CCC)NC(=O)N(CC(=O)c2cc(C)n(-c3ccc4c(c3)OCO4)c2C)C1=O | 6.0 | 11.6 | -1.0 | 6.5 | 10.4%
CSc1ccc(CN(C)C(=O)C23CC4CC(CC(Cl)(C4)C2)C3)cc1 | / | / | 12.2 | 0.5 | /
Cc1cc(CNC(=O)COc2ccc([N+](=O)[O-])cc2)c2ccccc2n1 | / | 4.8 | 27.6 | 0.8 | -6.9%
O=C(O)C1CC(=O)N(Cc2cccnc2)C1 (stereo unspecified) | -35.5 | -4.1 | -1.1 | -0.3 | -14.5%
COC(=O)c1[nH]c2ccccc2c1NC(=O)CCN1CCN(C2CCCCC2)CC1 | -34.8 | 4.8 | -1.6 | / | 1.0%
Cc1ccc(N2C(=O)C3CCCN3C2=S)cc1C (stereo unspecified) | / | / | 3.7 | 1.1 | /
Cc1ccc(C(=O)NCC(=O)OCCCn2c(=O)[nH]c3ccccc32)cc1 | / | / | 1.4 | 1.6 | /
COc1cc(CNCCN2CCOCC2)ccc1OCC(=O)NC(C)(C)C | / | 1.1 | 0.0 | -4.5 | 2.7%
CCOC(=O)N1CCN(S(=O)(=O)N2CCCC(C(=O)NCc3ccccc3Cl)C2)CC1 (stereo unspecified) | / | / | 1.2 | -5.8 | /
CC(C)Oc1ccccc1OCCCCn1cnc2ccccc2c1=O | / | 3.4 | 2.0 | -2.5 | 2.2%
CN1CCc2c(sc3nc(SCC(=O)NCc4ccco4)n(-c4ccccc4)c(=O)c23)C1 | / | / | -4.9 | 7.7 | /
Cc1ccccc1-c1nc(CN2CCC(C(=O)NC3CCN(Cc4ccccc4)CC3)CC2)c(C)o1 | 8.2 | -1.3 | 0.7 | -3.3 | 5.6% | Arbovirus inh repeat=-1.9
CN(CC(=O)Nc1ccccc1Cl)C(=O)COC(=O)c1cnccn1 | / | / | -0.7 | -8.2 | /
CCCOc1ccc(OC(=O)c2ccc(Br)o2)cc1 | -12.7 | -31.3 | -6.0 | 90.0 | 3.5%
CSCCC(=O)NC1CCCN(CCc2ccccc2)C1 (stereo unspecified) | / | / | 2.3 | 4.5 | /
Nc1nc2nonc2nc1N | / | / | -0.6 | -2.9 | -2.5%
O=C(NCCO)C(=O)NCC1OCCCN1S(=O)(=O)c1cc(F)ccc1F (stereo unspecified) | / | / | -0.4 | -8.9 | /
O=c1/c(=C\c2ccc3c(c2)OCO3)sc2n1CCCN=2 | -46.8 | -2.1 | 0.9 | 16.8 | -5.8%
O=C(Nc1ccccc1N1CCCCC1)c1ccc(-c2ccc(Cl)cc2)o1 | -24.9 | -13.2 | -0.5 | 27.9 | 66.1%
CCN(CC)C(=O)CSc1nc2ccccc2c(=O)n1CCC(=O)NCCc1ccc(OC)c(OC)c1 | / | 5.9 | 3.4 | 2.7 | 2.2%

(cont.)
SMILES | YopH PTP inh | Arbovirus inh | RecA splice inh | Mtb bLac sens | Mtb H37Rv | others
Cc1cc(C)cc(OC(=O)C23CCC(C)(C(=O)O2)C3(C)C)c1 (stereo unspecified) | / | 0.4 | 1.6 | -9.1 | -2.2%
COc1ccc(/C=C2\SC(=O)N(CCC(=O)Nc3ccccc3)C2=O)cc1OC | -34.0 | 2.5 | -0.2 | 1.5 | -5.7%
CCN(Cc1ccccc1)c1c(C(=O)O)cnc2c1cnn2C | / | 4.0 | 4.2 | 1.6 | 0.6%
Nc1nnc(-c2ccccc2Cl)s1 | -16.0 | -3.6 | 0.4 | 28.3 | 14.5%
COc1ccc(OCCC(=O)OCC(=O)NC(=O)NC(C)(C)C)cc1 | -22.6 | 7.9 | / | -3.5 | 8.7%
O=C(CSc1ncnc2scc(-c3ccc(Cl)cc3)c12)NCc1ccc2c(c1)OCO2 | -34.2 | -28.1 | -1.7 | / | 5.8%
CC(=O)Nc1cccc(NC(=O)CSc2ncc(-c3ccc(Cl)cc3)n2Cc2ccco2)c1 | -1.7 | -32.6 | / | 73.1 | 14.1%
O=C(NC(Cc1ccccc1)C(=O)O)/C(=C\c1ccc(F)cc1)NC(=O)c1ccco1 (stereo unspecified) | / | / | -0.7 | -4.5 | /
CCN(CC(=O)Nc1ccc(NC(C)=O)cc1)C(=O)/C=C/c1ccc(S(=O)(=O)N2CCCCCC2)cc1 | / | / | -0.9 | -18.7 | /
Cc1cccc(NC(=O)CNC(=O)c2cccs2)n1 | / | / | -1.8 | -5.4 | /
CSC(=NC#N)N1CCN(c2ccccn2)CC1 | / | -1.8 | -1.3 | -7.0 | 3.3%
COC(C(=O)NC1CCCCCCC1)c1ccccc1 (stereo unspecified) | -26.5 | -9.2 | 0.7 | -2.2 | -4.5%
CCCCNC(=O)N1CCOCCOCCN(C(=O)NCCCC)CCOCC1 | -24.1 | -1.3 | 6.6 | -3.3 | -4.7%
O=C(NC(=S)NCc1ccccc1)c1ccccc1Br | / | / | 1.5 | 8.8 | /
O=C(CC1Oc2ccccc2NC1=O)NCCc1ccccc1 (stereo unspecified) | -44.7 | -3.8 | / | 5.4 | 0.6% | Arbovirus inh repeat=0.5
CC(=O)NC12CC3CC(C1)CC(C(=O)NCc1ccc(C)cc1)(C3)C2 | / | / | 3.4 | 10.4 | /
Cn1cccc1C(=O)OCC(=O)c1cc2ccccc2o1 | 0.9 | / | 0.3 | -7.8 | -7.0%
Cc1cc(C)cc(-n2c(C)cc(C(=S)N3CCOCC3)c2C)c1 | -54.2 | -4.6 | 6.1 | 0.9 | 0.1%
COc1cc(C2C(C#N)=C(N)Oc3cc(C)n(CC4CCCO4)c(=O)c32)cc2c1OCO2 (stereo unspecified) | -55.8 | 10.7 | -2.7 | / | -1.1%
COc1ccc(-c2nnc(SCC(=O)Nc3sc4c(c3C#N)CCC4)n2CC2CCCO2)cc1 (stereo unspecified) | -18.9 | 2.5 | / | / | 5.5%
O=[N+]([O-])c1ccc(CN2CCOCCOCCN(Cc3ccc([N+](=O)[O-])cc3)CCOCC2)cc1 | -25.6 | 3.2 | 0.5 | -3.8 | 4.5%
CC(OC(=O)Cc1n[nH]c(=O)c2ccccc12)C(=O)Nc1cc(Cl)cc(Cl)c1 (stereo unspecified) | / | / | -1.0 | -6.6 | /
O=C(CCc1nc2ccccc2c(=O)[nH]1)OCc1cccc(C(F)(F)F)c1 | -22.5 | 1.6 | 4.0 | 16.0 | 0.2%
Fc1ccccc1OCCSc1nnnn1-c1ccccc1 | -27.6 | 4.5 | 1.7 | ? | 13.7%
CC1CC(C)CN(C(=O)C(C)N(C)CC(=O)Nc2ccc(Cl)cc2)C1 (stereo unspecified) | / | 9.0 | 0.8 | -0.5 | 7.9%

Entries from the list above that have a cyano group (3):
SMILES | YopH PTP inh | Arbovirus inh | RecA splice inh | Mtb bLac sens | Mtb H37Rv | others
CSC(=NC#N)N1CCN(c2ccccn2)CC1 | / | -1.8 | -1.3 | -7.0 | 3.3%
COc1cc(C2C(C#N)=C(N)Oc3cc(C)n(CC4CCCO4)c(=O)c32)cc2c1OCO2 (stereo unspecified) | -55.8 | 10.7 | -2.7 | / | -1.1%
COc1ccc(-c2nnc(SCC(=O)Nc3sc4c(c3C#N)CCC4)n2CC2CCCO2)cc1 (stereo unspecified) | -18.9 | 2.5 | / | / | 5.5%

Continued:
SMILES | YopH PTP inh | Arbovirus inh | RecA splice inh | Mtb bLac sens | Mtb H37Rv | others
O=C(CCC1N=C2c3ccccc3N=C(SCc3ccccc3Cl)N2C1=O)NCc1ccco1 (stereo unspecified) | -37.1 | -5.0 | / | -6.1 | 0.1%
Cn1c(=O)oc2cc(NC(=O)CCl)ccc21 | / | / | 9.6 | 97.0 | 1.3%
Cc1cc(C(=O)N2CCCCCC2)cs1 | -18.8 | -0.9 | 0.3 | 17.1 | -1.6%
Cc1nc2sc(C(=O)OC(C)C)c(N)c2c(C)c1C | / | -6.6 | 0.1 | 39.6 | 8.6%
Cc1ccc(C2=N/C(=C\N(C)C)C(=O)O2)cc1 | -23.5 | -4.2 | -0.1 | / | -5.5%
COc1ccc(NC(=O)C2CC2)cc1OC1CCCC1 | / | / | -2.9 | -0.5 | /
Cc1ccc(S(=O)(=O)N2CCOC2CNC(=O)C(=O)NCc2ccco2)cc1 (stereo unspecified) | -24.3 | -1.6 | 0.6 | -1.1 | 4.5%
O=C(c1cccs1)N1CCN(C/C=C/c2ccccc2)CC1 | -2.1 | 2.4 | -0.5 | -14.7 | 0.0%
O=C(CC1C(=O)NCCN1Cc1ccc(F)cc1Cl)NCc1ccon1 (stereo unspecified) | / | / | -5.8 | -1.2 | /
CCCCCCN=C(CC)c1c(O)n(CCCC)c(=O)[nH]c1=O | -48.3 | -30.6 | 6.9 | ? | 12.6%
CC(C)N(Cc1ccccc1)C(=S)NCc1ccccc1 | / | 1.2 | / | 4.7 | 1.4%
COc1ccc(-n2cnnc2SCC(=O)Nc2ccccc2F)cc1 | / | / | 1.3 | 6.2 | /
CCOC(=O)N1CCN(C(=O)c2cc3c(=O)[nH]c4ccccc4c3s2)CC1 | -33.9 | 6.2 | -1.7 | 44.1 | /
CN(C)c1cccc2c1c(NC(=O)Nc1ccc(Cl)cc1Cl)nn2C | / | / | 3.0 | -0.2 | -5.1%
CN1CCN(/C=N/c2c(C#N)cnn2C)CC1 | 1.1 | -1.8 | 0.9 | -3.0 | -7.3%
Cc1cccc(N2CCN(C(c3ccncc3)c3nnnn3C(C)(C)C)CC2)c1C (stereo unspecified) | / | 4.0 | -3.6 | -2.8 | 2.8%
CCOC(=O)N1CCC(N2C(=O)c3ccccc3C2Nc2ccccc2)CC1 (stereo unspecified) | -50.7 | -1.3 | 3.7 | -1.7 | -1.4%
CN(Cc1cccnc1)C(=O)Cc1ccc(NS(=O)(=O)c2cccc(C(F)(F)F)c2)cc1 | / | / | 0.5 | -7.6 | /
COc1ccccc1-c1cn(S(=O)(=O)c2ccc(C)cc2)nc1N | -37.0 | 3.6 | 3.4 | 6.1 | 6.0%
O=C(CSc1ncccn1)N/N=C/c1ccccc1[N+](=O)[O-] | / | 12.4 | 2.1 | 0.7 | -0.4%
CCC(=O)Nc1nonc1-c1nc2ccccc2n1Cc1ccccc1 | 33.0 | -19.3 | 3.5 | -5.4 | 22.2%
Oc1[nH]c(N=C2N=c3ccccc3=N2)c2ccccc12 | / | / | 16.2 | 4.8 | 0.2%
COc1ccc(CCNC(=O)C2CC(c3ccccc3[N+](=O)[O-])=NO2)cc1 (stereo unspecified) | -31.2 | 0.2 | 13.6 | 1.3 | -5.8%
Cc1ccc(S(=O)(=O)/N=C2\C(=O)c3ccccc3C([O-])=C2n2cc[n+](CCC(C)C)c2)cc1 | 4.8 | -13.7 | 13.3 | -9.2 | 0.4%

Arranged by SMILES length (largest number first): some entries from above
SMILES | YopH PTP inh | Arbovirus inh | RecA splice inh | Mtb bLac sens | Mtb H37Rv | others
CN(C)c1cccc2c1c(NC(=O)Nc1ccc(Cl)cc1Cl)nn2C | / | / | 3.0 | -0.2 | -5.1%
COc1ccc(-n2cnnc2SCC(=O)Nc2ccccc2F)cc1 | / | / | 1.3 | 6.2 | /
Oc1[nH]c(N=C2N=c3ccccc3=N2)c2ccccc12 | / | / | 16.2 | 4.8 | 0.2%

5 compounds picked at random from the list so far, as already listed:
SMILES | YopH PTP inh | Arbovirus inh | RecA splice inh | Mtb bLac sens | Mtb H37Rv | others
CN(Cc1cccnc1)C(=O)Cc1ccc(NS(=O)(=O)c2cccc(C(F)(F)F)c2)cc1 | / | / | 0.5 | -7.6 | /
O=C(CC1C(=O)NCCN1Cc1ccc(F)cc1Cl)NCc1ccon1 (stereo unspecified) | / | / | -5.8 | -1.2 | /
Cc1nc2sc(C(=O)OC(C)C)c(N)c2c(C)c1C | / | -6.6 | 0.1 | 39.6 | 8.6%
Oc1[nH]c(N=C2N=c3ccccc3=N2)c2ccccc12 | / | / | 16.2 | 4.8 | 0.2%
COc1ccc(CCNC(=O)C2CC(c3ccccc3[N+](=O)[O-])=NO2)cc1 (stereo unspecified) | -31.2 | 0.2 | 13.6 | 1.3 | -5.8%
